Screening data (PubChem BioAssay)
CapD inh – CapD enzyme inhibition; purified CapD enzyme, fluorescence intensity read-out; hits give low values; some hits fall short of the stated cut; z-score (concentration not given with the values); actives 0.23% (n = 140,000);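 active means z-score under -4 in either of two replicates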;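 further: stock transfer was 100 nL into about 40 µL; score is relative to mean and spread of the plate; one replicate is shown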
AID504770 – growth inhibitors of E. coli YBA685 in a screen for V. cholerae RctB (chromosome II replication) inhibitors; E. coli YBA685 rctB-dependent plasmid, OD600 growth, 3 h; hits give low values; actives 0.27% (n = 130,000); z-score (concentration not given with the values);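 active means z-score under -2 on both plates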;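 further: wells of about 30 µL received 100 nL stock; score is relative to mean and SD of the test wells; the first replicate is given; strong numbers were not always called active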
Numbers without * were called inactive; . = not tested or not shown.

SMILES	CapD inh	AID504770
COc1cc(-c2nc3ccccc3c(=O)n2NC(=O)c2ccc(Br)cc2)cc(OC)c1OC	-0.73	.
CCOC(=O)N1CCC(NC(=O)Nc2cn(C)c(=O)c3ccccc23)CC1	13	-1.8
C=CCn1c(C(C)Oc2ccc(Cl)cc2)n[nH]c1=S (configuration not stated)	-0.13	1.9
O=C(OCCc1cccc(Br)c1)N1CCN(c2ccc(C(F)(F)F)cn2)CC1	7	.
CN(CCc1ccccn1)C(=O)Nc1ccccc1	0.07	-0.7
N#CCC(=O)c1cccc(CSc2ccc(Cl)cc2)c1	-0.2	-0.85
CCOc1cc(/C=N/NC(=O)c2cccnc2)ccc1OCC(=O)N1CCCCC1	.	-0.25
O=C(Cn1nc(-c2ccco2)ccc1=O)NC1CCCCC1	20	-0.25
O=C(NCCc1c[nH]c2ccccc12)N(CCc1ccccc1)Cc1ccccc1	-0.015	.
COC(=O)c1cc(C(=O)c2cc(Br)ccc2O)coc1=N	.	-0.15
Cc1ccc(C(=O)Cc2nc3ncccc3[nH]c2=O)cc1	-0.3	0.25
COc1cc2c(cc1OC)C(c1cc(Br)ccc1O)N(C)CC2 (configuration not stated)	0.24	0.75
FC(F)(F)c1nc2ccccc2nc1N/N=C/c1ccc(Br)cc1	-1.6	.
CCCNC(=O)c1c(C)oc2ncn(CC(C)C)c(=O)c12	0.45	1.1
Cc1ccc(C)n1-c1ccccc1C1C=NNC1=O (configuration not stated)	-4.1*	-1.1
CCOC(=O)c1[nH]c(C)c(C(=O)N2CCOCC2)c1C	-1.2	3
Cc1c(C(=O)O)nnn1-c1cccc(C(F)(F)F)c1	-0.62	.
COc1ccc(-c2noc(CSCC(=O)NC3CC3)n2)cc1	-1.3	0.7
COc1ccc(C(=O)NCCc2c(C)[nH]c3c(C)ccc(F)c23)cc1OC	-0.42	0.35
CCC(=O)Nc1ccc(NC(=O)c2ccc(OC)cc2OC)cc1	-0.91	2.1
CN(C)C(=S)NC(Cc1ccccc1)c1ccccc1 (configuration not stated)	0.74	-0.3
N#Cc1cc(N)ccc1SCc1ccccc1	33	0.25
COC(=O)Cc1cc(OC(C)=O)n(-c2ccc(F)cc2)n1	.	-0.6
O=C(CCCO)N=Nc1c(O)[nH]c2ccccc12	-1.8	0.05
O=C(CCn1c(=O)oc2ccccc21)Nc1ccccc1	-1.6	-0.25
(cont.)
SMILES	CapD inh	AID504770
CC1CC(NC(=S)NC2CC3C=CC2C3)CC(C)(C)C1 (configuration not stated)	0.24	-0.9
N#Cc1cnc2ccnn2c1N	2.2	1.6
O=C(Cn1cc(C(=O)c2ccco2)c2ccccc21)NCC1CCCO1 (configuration not stated)	-0.14	-0.3
Cc1c(C(=O)Nc2nc3ccc(Br)cc3s2)sc2nc[nH]c(=O)c12	1.4	-0.7
Cc1ccc(NC(=O)c2sc3nc(C)nc(N4CCN(C)CC4)c3c2C)c(Br)c1	0.52	.
Cc1cc(C(F)(F)F)n2nc(-c3cccs3)cc2n1	-0.065	-0.1
COc1ccccc1C1c2c(-c3ccc(C)cc3)n[nH]c2C(=O)N1c1ccc(F)cc1 (configuration not stated)	-0.34	.
Cc1ccc(C(=O)N2c3ccccc3CC2C)o1 (configuration not stated)	-1.8	0.2
CC1CCC2C(O1)c1ccccc1OC2(C)C (configuration not stated)	-0.09	-0.7
O=C1C2C3c4ccccc4C(c4ccccc43)C2C(=O)N1O (configuration not stated)	.	-0.95
O=C(O)CC(CC(=O)Oc1ccccc1N1CCCCC1)c1ccccc1 (configuration not stated)	-0.35	-0.95
Cc1nn2c3c(cnc2c1-c1ccccc1)C(=O)CC(c1ccc(C(C)C)cc1)C3 (configuration not stated)	-0.46	-0.15
O=C(CSc1nc2ccccc2s1)NCCCN1CCOCC1	0.54	0.9
CCOc1ccc(C(F)(F)F)cc1NC(C)=O	0.57	0.1
N#Cc1c(SCC(=O)Nc2cccc(F)c2)nc2c(c1-c1ccco1)CCCC2	3.9	.
CCn1cc(SCC(=O)Nc2nccs2)c2ccccc21	-0.08	-0.7
Cc1cc(C)c2cc(C(=O)NCCNc3ccc(C(F)(F)F)cn3)[nH]c2c1	1.6	-0.15
CC(Oc1ccccc1)C(=O)NN1Cc2ccccc2C1=N (configuration not stated)	.	-0.7
CN1CCOc2cc(S(=O)(=O)NCCc3ccc(Cl)cc3)ccc21	4.6	2
CC(C)C(=O)NNc1ncccc1C(F)(F)F	1.1	-0.85
N#Cc1c(SCc2cccc(Cl)c2)sc(C(=O)c2ccccc2)c1N	-0.41	.
Cc1cc(C)n(-c2nc3cc(Cl)ccc3nc2NCCN2CCOCC2)n1	16	-0.95
O=C(c1ccc2c(c1)C(=O)N(Cc1ccncc1)C2=O)N1CCN(S(=O)(=O)c2ccc(OC(F)(F)F)cc2)CC1	.	-0.7
Cn1nc(C(C)(C)C)cc1C(=O)NC1CCCCNC1=O (configuration not stated)	0.15	0.45
O=C(N/N=C/c1cc(Br)cc(Br)c1O)c1cc(Br)ccc1Cl	-0.76	.
The listing continues:
SMILES	CapD inh	AID504770
CCc1ccccc1Nc1nc(N)nc(COC(=O)CSCc2c(C)noc2C)n1	.	-0.45
CCCn1c(=O)c(C(=O)NCc2ccccc2)c(O)c2ccccc21	12	1.2
CCn1c(=O)n(CC)c2cc(Nc3nc4ccccc4c4nncn34)c(Br)cc21	-0.3	1.5
CNC(=O)CSc1nc2cc(Cl)ccc2c(=O)n1CC1CCCO1 (configuration not stated)	.	-0.05
Cc1ccc(-c2ccc(=O)n(CC(=O)NCc3ccccn3)n2)cc1	4.4	1.8
Cc1ccc(C(=O)OCC(=O)Nc2ccc(N3CCOCC3)cc2)cc1	.	-0.3
C=C1C(=O)O[C@@H]2[C@H]3O[C@]3(C)CC/C=C(\C)CC[C@@H]12	-0.81	.
COc1ccc(CCNC(=O)CSC2=Nc3ccccc3C3=NC(C(C)C)C(=O)N23)cc1OC (configuration not stated)	-0.35	-0.1
Cc1ccc(COc2ccc(I)cc2)cc1	0.45	-0.5
CCOc1ccc(NC(=O)CC2SC(=Nc3ccccc3)N(c3ccccc3)C2=O)cc1 (configuration not stated)	-0.23	.
Nc1c(C(=O)Nc2nc(-c3ccccc3)cs2)sc2nc3c(cc12)CCCC3	4.4	.
Cc1ccc(C)n1-c1nn(S(=O)(=O)c2cccc(C(F)(F)F)c2)c2cccc(F)c12	-1.8	-0.8
Cc1cc(-c2noc(-c3ccccc3C)n2)c2ccccc2n1	0.42	0.4
CCS(=O)(=O)Nc1ccc(C(F)(F)F)cc1	0.07	-0.25
COc1cc(CN2CCC(NC(=O)OCCSCCNC(=O)c3sc4ccccc4c3Cl)C2)cc2c1OCO2 (configuration not stated)	-0.98	.
Cc1ccc(-c2c(C(=O)O)oc(=O)c3ccccc23)cc1	0.62	1.2
CCOC(=O)c1sc(-c2ccc3c(c2)CCO3)nc1C	101	-0.5
O=C(c1cnn2c(C(F)F)cc(-c3ccccc3)nc12)N1CCc2ccccc21	.	0.25
COc1ccc(CC(=O)N2N=C(C(F)(F)F)CC2(O)c2ccc(F)cc2)cc1OC (configuration not stated)	0.2	.
Cc1ccc(COC(=O)N2CCC(O)(c3cccc(C(F)(F)F)c3)CC2)c(C)c1	0.025	.
COc1ccc(C(=O)Nc2nnc(COc3ccc(Br)cc3)s2)cc1OC	0.94	.
O=C1c2cccc3cccc(c23)C(=O)N1Nc1ccccc1	-0.5	.
CCSc1nn(CC(=O)c2ccc(F)cc2)c(=N)s1	.	-2.2
CCC(C)(C)NC(=O)CCc1ccc(S(=O)(=O)N2CCOCC2)cc1	.	-0.75
O=C(NCC1COc2ccccc2O1)C1CCCCC1 (configuration not stated)	2	-0.9
(cont.)
SMILES	CapD inh	AID504770
N=c1ccccn1CC(O)COc1ccccc1 (configuration not stated)	0.67	-0.6
O=C(Nc1ccccc1)Nc1ccc(Cl)cc1	0.19	0.8
O=C1C2C3C=CC(C2C(=O)N1c1ccccc1)C1C2C(=O)N(c4ccccc4)C(=O)C2C31 (configuration not stated)	-0.49	.
N#CCN1C(=S)N=C(Nc2cccc(C(F)(F)F)c2)C12CCCCC2	5.7	.
O=c1cc(NCc2ccccc2)c2ccccc2o1	-0.15	-0.3
CC(C)NC(=O)COn1nnc2ccc(S(=O)(=O)N(C)C)cc21	.	0.15
Cc1cc(C)nc(NC(N)=NCc2cccnc2)n1	-0.17	-1.2
Cn1c(=O)c(=O)n(C)c2cc(S(=O)(=O)N3CCCC3C(=O)Nc3nccs3)ccc21 (configuration not stated)	1.5	1.2
Cc1ccc(Nc2nc(C(C)(C)C)cs2)c(C)c1	-0.19	.
Cc1nc(CC#N)cs1	-0.01	-0.65
O=C(OCCN=C1NS(=O)(=O)c2ccccc21)C1CC(=O)N(c2ccc(Cl)cc2)C1 (configuration not stated)	0.075	-0.65
COc1ccccc1C1OC(=O)CC1C(=O)O (configuration not stated)	0.075	.
CCc1cc(=O)n2[nH]c(C(F)(F)F)c(-c3ccccc3)c2n1	38	-0.65
COC(=O)c1cc(-c2ccc(Cl)c(Cl)c2)n(-c2cccc(C)c2C)n1	0.39	.
O=C(NCc1ccccc1)c1c(O)nc2ccccn2c1=O	33	-0.05
Clc1ccccc1-c1nnc(CN2CCc3ccccc32)o1	-0.34	2.2
COC(=O)c1ccccc1NC(=O)c1ccc(N2CC3CC(C2)c2cccc(=O)n2C3)c(NC(=O)/C=C/c2ccccc2)c1 (configuration not stated)	-0.38	.
CCc1nnc(NC(=O)CSc2nnc(NC(=O)c3cc(Cl)ccc3Cl)s2)s1	-0.01	.
CCOC(=O)c1cnc2c(F)cccc2c1Oc1cccc(C(F)(F)F)c1	0.59	.
Cc1cc(C)cc(COC(=O)N2CCC(O)(c3cccc(C(F)(F)F)c3)CC2)c1	-1.6	.
O=C(NCCc1ccccn1)c1cnn(-c2ccc(Cl)cc2)c1C(F)(F)F	0.77	0.55
CCOC(=O)C1CCN(C(=O)c2c[nH]c3ccc(S(=O)(=O)N(C)c4ccc(Cl)cc4)cc3c2=O)CC1	3	.
Cc1c(Cc2c(F)cccc2Cl)c(=O)oc2cc(O)ccc12	33	0.85
CC1=CC(O)(c2ccccc2)C(N2CCOCC2)N1O (configuration not stated)	0.14	0.55
CCOc1nc(NCCC2=CCCCC2)nc(OCC)n1	-0.35	-1.1

Looked up one by one from above:
SMILES	CapD inh	AID504770
Cc1nc(CC#N)cs1	-0.01	-0.65
CCn1cc(SCC(=O)Nc2nccs2)c2ccccc21	-0.08	-0.7
CCOC(=O)N1CCC(NC(=O)Nc2cn(C)c(=O)c3ccccc23)CC1	13	-1.8
O=C1C2C3C=CC(C2C(=O)N1c1ccccc1)C1C2C(=O)N(c4ccccc4)C(=O)C2C31 (configuration not stated)	-0.49	.
CC1=CC(O)(c2ccccc2)C(N2CCOCC2)N1O (configuration not stated)	0.14	0.55
CC(C)C(=O)NNc1ncccc1C(F)(F)F	1.1	-0.85

Structural class: those above with an NH in an aromatic ring.
SMILES	CapD inh	AID504770
C=CCn1c(C(C)Oc2ccc(Cl)cc2)n[nH]c1=S (configuration not stated)	-0.13	1.9
O=C(NCCc1c[nH]c2ccccc12)N(CCc1ccccc1)Cc1ccccc1	-0.015	.
Cc1ccc(C(=O)Cc2nc3ncccc3[nH]c2=O)cc1	-0.3	0.25
CCOC(=O)c1[nH]c(C)c(C(=O)N2CCOCC2)c1C	-1.2	3
COc1ccc(C(=O)NCCc2c(C)[nH]c3c(C)ccc(F)c23)cc1OC	-0.42	0.35
O=C(CCCO)N=Nc1c(O)[nH]c2ccccc12	-1.8	0.05
Cc1c(C(=O)Nc2nc3ccc(Br)cc3s2)sc2nc[nH]c(=O)c12	1.4	-0.7
COc1ccccc1C1c2c(-c3ccc(C)cc3)n[nH]c2C(=O)N1c1ccc(F)cc1 (configuration not stated)	-0.34	.
Cc1cc(C)c2cc(C(=O)NCCNc3ccc(C(F)(F)F)cn3)[nH]c2c1	1.6	-0.15
CCc1cc(=O)n2[nH]c(C(F)(F)F)c(-c3ccccc3)c2n1	38	-0.65
CCOC(=O)C1CCN(C(=O)c2c[nH]c3ccc(S(=O)(=O)N(C)c4ccc(Cl)cc4)cc3c2=O)CC1	3	.

New compounds follow:
SMILES	CapD inh	AID504770
c1nc(Sc2nnnn2C2CC2)c2ccsc2n1	.	0.1
CCC(=O)NCc1ccc2c3c(cccc13)C(=O)N2	.	-0.25
COc1ccc(CN2C(=O)CC(C(=O)Nc3ccccc3OC)SC2=Nc2ccc(F)cc2)cc1 (configuration not stated)	0.12	.
CCOC(=O)c1c(NC(=O)CSc2nnc3sc4ccccc4n23)sc(C(=O)N(CC)CC)c1C	.	-0.15
CSc1nccc(-c2cccs2)n1	1.7	-0.3
CC(C)NC(=S)NNc1ccc(C(=O)O)cc1	.	0.15
Cc1nn(-c2ccccc2)c2sc(C(=O)N3CCc4ccccc4C3)cc12	.	-0.2
COC(=O)c1ccc(Nc2nnc(-c3ccc(C(=O)NCCO)cc3)c3ccccc23)cc1	0.49	.
CC1(C)CC2CC(C)(CN2c2ncnc3ccccc23)C1 (configuration not stated)	1.1	0.55
CCN(CC)c1ncnc2c1ncn2Cc1c(Cl)cccc1Cl	-0.22	-0.95
COc1ccc(Cc2nnc(SCC(=O)N3CCCC3)o2)cc1	.	-0.3
O=C(CN1C(=O)c2cccc3cccc1c23)Nc1ccc(S(=O)(=O)Nc2ccccc2)cc1	-0.12	-0.4
CC1=C(C(=O)Nc2ccccc2C(F)(F)F)C(c2ccccn2)C2=C(CC(C)(C)CC2=O)N1 (configuration not stated)	7.6	.
CCC(Sc1nnnn1-c1ccccc1)C(=O)Nc1ccccc1OC (configuration not stated)	-0.24	-0.65
Cc1ccc(-c2nn3c(C)nnc3c3ccccc23)cc1S(=O)(=O)NCc1ccco1	0.36	1.5
O=C(Oc1ccc(-c2nccc(-c3cccs3)n2)cc1)c1ccc(Cl)cc1	0.29	.
Clc1ccc(-c2csc(-c3ccno3)n2)s1	8.2	2.5
Cn1ncc2c1ncn1nc(-c3ccccc3)nc21	0.23	-0.25
O=C(CCc1c[nH]c2ccccc12)NCC1CCCO1 (configuration not stated)	.	-0.25
c1ccc(C[n+]2cccc(-c3ccccc3)c2)cc1	0.015	-0.4
Cc1cc(=O)oc2cc(OCC(=O)O)ccc12	29	0.3
CC(C)c1cccc(C(C)C)c1NC(=O)CNC(C)(C)C	.	0.1
